Source: PubChem BioAssay
D2 potentiator: human D2 receptor positive allosteric modulation | potentiation, % (test concentration not listed) | 360,000 tested, 0.23% active | AID 624464 | DiscoveRx D2 beta-arrestin cells, luminescence, 90 min; 100% = 57 uM dopamine signal | P14416; active = potentiation of 50% or more; inconclusive = 30% to 50%; inactive = 30% or less;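 note: compound concentration not given in the record; tested on top of an EC20 dose of dopamine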
Target sequence (P14416 whole entry, looked up): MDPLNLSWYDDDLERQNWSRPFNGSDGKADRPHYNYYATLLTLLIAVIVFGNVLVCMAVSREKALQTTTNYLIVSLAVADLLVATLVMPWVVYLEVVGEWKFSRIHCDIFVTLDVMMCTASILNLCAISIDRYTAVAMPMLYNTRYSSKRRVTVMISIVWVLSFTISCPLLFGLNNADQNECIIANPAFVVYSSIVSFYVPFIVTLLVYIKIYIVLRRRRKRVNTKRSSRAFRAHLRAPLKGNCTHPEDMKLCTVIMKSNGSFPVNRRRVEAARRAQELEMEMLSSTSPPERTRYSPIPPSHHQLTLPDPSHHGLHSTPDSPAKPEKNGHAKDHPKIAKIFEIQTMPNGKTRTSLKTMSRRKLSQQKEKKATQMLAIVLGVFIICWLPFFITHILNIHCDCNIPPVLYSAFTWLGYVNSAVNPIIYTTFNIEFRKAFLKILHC
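D2 cells co-treated with compound plus 50 nM dopamine (EC20) for 90 min at 37 deg C to detect potentiation. Beta-arrestin recruitment was read as enzyme-fragment luminescence after 1 h at ambient temperature. Full response was set by 57 uM dopamine.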
D2 agonist: agonists of human D2 dopamine receptor (beta-arrestin) | DiscoveRx PathHunter D2 beta-arrestin, luminescence, 90 min; 100% = 57 uM dopamine signal | 360,000 tested, 0.084% active | activation, % (concentration not given with the values) | P14416; in the data active = activation above about 40%; inconclusive = about 15% to 40%; inactive = below about 15%; note: compound concentration not given in the record; the text of the record calls up to 30% inactive
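Agonist mode: compounds alone added to overnight-plated D2 PathHunter cells for 90 min at 37 C, with 57 uM final dopamine (EC100) defining full response. Beta-arrestin recruitment detected by chemiluminescent reagent, read after 1 h at ambient temperature.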
TRPML1 agonist: human mucolipin-1 channel agonism | AID 624414 | Q9GZU1 | 410,000 tested, 0.12% active | activation, % (no concentration beside the values) | TRPML1-expressing cells, Ca2+ dye fluorescence, FDSS; host cell line not named in the record; reference of the full effect not given here; in the data active = activation above about 50%; inconclusive = about 30% to 50%; inactive = below about 30%; note: 0% is about no effect; the text of the record puts the active cut at 80%
Target sequence (Q9GZU1 whole entry, looked up): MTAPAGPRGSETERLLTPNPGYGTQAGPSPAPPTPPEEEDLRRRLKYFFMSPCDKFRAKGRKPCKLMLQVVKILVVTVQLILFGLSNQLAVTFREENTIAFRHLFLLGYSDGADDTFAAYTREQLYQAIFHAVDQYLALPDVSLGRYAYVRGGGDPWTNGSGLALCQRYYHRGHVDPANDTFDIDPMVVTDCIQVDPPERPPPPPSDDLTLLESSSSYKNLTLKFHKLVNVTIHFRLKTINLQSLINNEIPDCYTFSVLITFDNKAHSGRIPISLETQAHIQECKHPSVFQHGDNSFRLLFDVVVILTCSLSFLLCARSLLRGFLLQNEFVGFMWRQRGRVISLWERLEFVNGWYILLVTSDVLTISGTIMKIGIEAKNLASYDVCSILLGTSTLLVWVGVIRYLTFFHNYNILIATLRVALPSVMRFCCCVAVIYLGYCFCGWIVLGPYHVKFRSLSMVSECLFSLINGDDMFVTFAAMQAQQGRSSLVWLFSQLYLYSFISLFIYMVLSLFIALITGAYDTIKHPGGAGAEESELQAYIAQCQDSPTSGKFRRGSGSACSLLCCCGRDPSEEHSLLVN
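Agonist activity was taken from a 110 s kinetic Ca2+ dye read on the FDSS after pinning compounds onto TRPML1-DL cells. The cells were seeded at 1,500/well with Tet inducer, incubated about 16 h, then dye-loaded at room temperature.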
PINK1 modulator: modulators of PINK1 expression; PINK1 immunofluorescence, high-content cytometry, 24 h; Potency, µM (titrated, usually from 76.6 µM), for inactives: at the highest dose activation (PINK1 increase), hits mostly activators; 410,000 tested, 0.2% active; AID 624263; active = well fitted activation curve with a large enough effect; inconclusive = small, poorly fitted or top-dose-only effect; inactive = flat fitted curve, though single readings scatter; cell line not stated here;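 note: potency is the fitted concentration of half-maximal effect; % of control where 0% means no effect; nearly all actives have a fitted effect of over 65% in size; a mitochondrial uncoupler was the plate control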
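Fluorescence from anti-PINK1 antibody, together with nuclear and cell stains, was scanned on a laser-scanning cytometer. Before staining, stable-line cells were incubated 24 hours with compounds at 5 concentrations; primary antibody 12 h at 10 degrees C.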
Six1-Eya2 blk: Six1/Eya2 interaction inhibition; AlphaScreen GST-Six1/His-Eya2 binding, biochemical; stronger effect = lower value; control for the full effect not named in the record; activity change, % (test concentration not listed); 360,000 tested, 0.56% active; AID 651725; in the data active = activity change below about -65%; inconclusive = about -30% to -65%; inactive = above about -30%; note: % is set by controls: 0 for no effect and ±100 for the full control effect; compound concentration not given in the record
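Six1/Eya2 binding was read as AlphaScreen signal after compounds were pinned into GST-Six1 plus His-tagged Eya2 (5X stock 250/500 nM) in pH 8.0 Tris/NaCl/TCEP buffer, beads added, then incubated 1 h, 37 C, dark.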
CtBP-E1A blk: inhibitors of CtBP/E1A interaction | 340,000 tested, 0.49% active | activity change, % (test concentration not listed) | AlphaScreen GST-E1A/His-CtBP binding, 1536-well; stronger effect = lower value; control for the full effect not named in the record | AID 651724; in the data active means activity change below about -65%; inconclusive means about -30% to -65%; inactive means above about -30%; note: % is set by controls: 0 for no effect and ±100 for the full control effect; compound concentration not given in the record
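In 5 uL wells, 23 nL compound meets equimolar GST-E1A and His-CtBP (5X stock 125 nM each) for 2 h, 37 °C. Beads (5X, 50 ug/mL) then 1 h, 37 °C, dark.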
Numbers without * were called inactive; ? = inconclusive; . = no result given; & = joins results of further samples; [ ] = remark or other dose. Compounds were not picked by outcome. About 1.3% of those tested had a hit in this group.

SMILES	D2 agonist	D2 potentiator	PINK1 modulator	CtBP-E1A blk	TRPML1 agonist	Six1-Eya2 blk
COc1ccc(C(=O)[C@H]2[C@H]3C(=O)N(c4ccc(OC(C)=O)cc4)C(=O)[C@H]3C3C=CC=NN32)cc1 (stereo not given in full)	-2.0	-4	-1.9%	-4	0.0	-9
OC(COc1c(Cl)cc(Cl)cc1Cl)CN1CCCCC1 (stereo not given)	-2.3	-14	-0.6%[38.3 µM]	8	-0.7	0
O=C(OCc1nnc(-c2ccccc2)o1)C1CC(=O)N(c2ccccc2)C1 (stereo not given)	-4.9	-2	-1.3%	2	6.7	9
CCC(=O)N1c2ccc(S(=O)(=O)N3CCN(CC)CC3)cc2CC1C (stereo not given)	6.6	-9	0.1%	-9	-0.5	-2
Cc1cc(C(=O)Nc2cccc3cccnc23)ccc1[N+](=O)[O-]	2.0	-5	6.6%	.	2.0	-11
Cc1cc2sc(NC(=O)c3ccco3)nc2cc1Cl	-0.6	-1	10%	6	-0.1	6
CS(=O)(=O)c1cc(N2CCOCC2)ccc1CNC[C@H]1O[C@@H](n2cnc3c(=O)[nH]c(N)nc32)[C@H](O)[C@@H]1O	-4.3	-2	-0.4%	2	0.4	3
CCCCc1cc(=O)oc2c(CN(CC)CC)c(O)c(Cl)cc12	1.2	3	-1.5%	5	0.0	5
CCOc1ccc(CCNC(=O)COC(=O)c2ccc(C)c([N+](=O)[O-])c2)cc1OCC	-4.5	4	2.3%	8	1.0	4
Fc1ccc(-c2nc3ccc(Br)cn3c2Cc2ccccc2)cc1	-9.1	-4	13%	-12	2.0	1
CCOC(=O)c1ccc(N2C(=O)c3n[nH]c(C)c3C2c2ccccc2)cc1 (stereo not given)	-5.0	-11	-2.3%[38.3 µM]	-11	2.6	-1
C/C(=N\NC(=O)c1ccc(NS(=O)(=O)c2cccs2)cc1)c1cccs1	-3.8	-3	2.0%	8	0.3	2
O=C(c1ccco1)N1CCN(C(=O)N2CCCC2)CC1	-0.6	-1	1.5%	9	0.6	16
Cc1ccc(-c2cc(C(=O)Nc3nn[nH]n3)c3ccccc3n2)cc1	-0.4	3	4.4%[38.3 µM]	1	1.0	-1
CCOc1ccccc1N(CC(=O)Nc1ccccc1)S(=O)(=O)c1ccccc1	-2.4	0	5.2%	2	0.4	-11

The list goes on, overlapping the part above by 2 compounds.
SMILES	D2 agonist	D2 potentiator	PINK1 modulator	CtBP-E1A blk	TRPML1 agonist	Six1-Eya2 blk
Cc1ccc(-c2cc(C(=O)Nc3nn[nH]n3)c3ccccc3n2)cc1	-0.4	3	4.4%[38.3 µM]	1	1.0	-1
CCOc1ccccc1N(CC(=O)Nc1ccccc1)S(=O)(=O)c1ccccc1	-2.4	0	5.2%	2	0.4	-11
O=C1CSC(c2ccccc2)N1Nc1nc(N2CCOCC2)nc(N2CCOCC2)n1 (stereo not given)	-4.6	-2	3.9%	5	0.5	6
CC1(OC(=O)C2CCCC2)C(=O)C=C2C=C(c3ccsc3)N(CCc3ccccn3)C=C2C1=O (stereo not given)	8.0	8	1.4%	-3	0.0	0
FC(F)Oc1ccc(NC(=S)NCc2ccccc2)cc1	3.0	-5	1.5%	0	1.1	3
CCCC(=O)Nc1ccc2c(c1)nc1n2CCSC1	-0.4	-8	1.1%	4	-0.6	4
CCC(C(=O)N1CCC(N2CCCCC2)CC1)n1nc(C)c2sc3ccccc3c2c1=O (stereo not given)	-2.1	-9	0.2%	.	0.7	3
CCOc1ccc(Br)cc1S(=O)(=O)Nc1cccc(S(=O)(=O)N(CC)CC)c1	1.6	-7	1.8%	12	-0.1	9
O=C(NC1CCCC1)C(c1ccsc1)N(CCc1ccccc1)C(=O)Cc1cccs1 (stereo not given)	-1.9	-8	6.9%	.	0.3	8
Cc1ccc2cccc(Oc3nnnn3-c3ccccc3)c2n1	-1.9	6	-0.5%	5	0.8	-4
CCOC(=O)C1CN(S(=O)(=O)c2ccccc2)C1	-3.0	-17	-1.7%	3	0.8	0
O=C(NCC1COc2ccccc2O1)c1cccc(S(=O)(=O)N2CCOCC2)c1 (stereo not given)	-1.8	0	-1.3%	-3	0.3	8
CCc1nnc(NS(=O)(=O)c2ccc(N/C=C\C(=O)c3cccc4ccccc34)cc2)s1	-2.6	-3	-1.2%	-3	1.0	-12
Cc1cc(C(F)(F)F)nn2cnnc12	-1.1	1	2.6%	-7	1.5	6
CC(C)c1ccc(-c2c(C#N)c(N)nc3c2CCCCC3)cc1	-0.2	-18	8.9%	-1	1.1	-24
COc1cc(OC)c(OC)cc1/C=N/NC(=O)c1ccc(=O)n(C)c1	-2.7	-7	0.7%	-1	0.8	-3
CC(C)C1C(=O)N(Cc2cn(Cc3ccco3)nn2)CCS(=O)(=O)N1Cc1ccc(-c2ccc(F)nc2)cc1 (stereo not given)	-2.8	-7	0.5%	-3	1.4	-12
CCNC(=S)Nc1ccc2c(c1)c(=O)n(C)n2-c1cc(C)cc(C)c1	-3.2	5	3.1%	1	-1.0	-11
Cc1nc2cc(Nc3ccncc3)ccc2s1	-2.6	-7	0.1%	-1	0.0	-3
CCCN1C2=NCCN2c2ccccc21	-4.5	-3	0.0%	-1	0.0	-3
COc1ccc(OC)c(Nc2ncnc3sccc23)c1	0.5	-9	2.8%	.	2.7	-1
CCOC(=O)c1sc(NCc2ccco2)c(-c2nc3ccccc3s2)c1N	-5.3	-19	6.7%	-12	-0.5	-30
O=S(=O)(c1ccccc1)N(CC(O)CN1CCCC1)c1ccccc1 (stereo not given)	-3.5	-6	-2.8%	-6	0.7	-4
Cn1ccs/c1=N\S(=O)(=O)c1ccc(Br)cc1	-2.7	4	0.3%	-6	1.2	3
Cc1cccn2c(=O)c(/C=N/O)c(N3CCCC3)nc12	-1.3	3	-1.5%[38.3 µM]	0	0.1	-4
COc1ccc2c(c1)CC/C(=C/c1ccco1)C2=O	0.3	-2	-1.8%	-12	0.8	-10
COC(=O)c1c(NC(NC(C)=O)C(Cl)(Cl)Cl)sc2c1CCCC2 (stereo not given)	0.7	9	18%	7	1.4	-25
O=C(NCCS(=O)(=O)N1CCN(c2ccccc2F)CC1)C1CC(=O)N(c2ccc(F)cc2)C1 (stereo not given)	-0.2	-1	0.1%&-0.3%	.	1.5&3.1	7
COC(=O)c1cccc(NC(=O)CCNC(=O)c2ccc([N+](=O)[O-])cc2)c1	2.2	9	1.6%	-5	2.9	-4
O=C(c1cc(F)cc2c1OCOC2)N1CCN(c2ccc(F)cc2)CC1	-1.1	-12	-0.4%	12	-0.2	9
O=C1c2ccccc2S(=O)N1c1cccc(F)c1 (stereo not given)	-0.4	-4	1.3%	0	0.9	8
COc1ccc(S(=O)(=O)N(CCc2ccccc2)CC(=O)O)cc1OC	2.2	-4	2.2%[38.3 µM]	1	0.4	3
COc1ccc(N(C)C(=O)C2CCN(S(=O)(=O)c3cccc4nsnc34)CC2)cc1	0.4	-22	-1.1%	-9	0.1	-17
Cn1cc(CN(CCO)Cc2cccs2)c(-c2ccccc2F)n1	-2.4	-14	0.4%	-6	-0.6	2
N=c1ccn2c(n1)O[C@H]1[C@H](O)[C@@H](CO)O[C@H]12	-3.3	-4	-2.1%	3	0.6	1
Cc1cc(=O)n2nc(-c3ccccc3)sc2c1C#N	-2.5	-7	0.7%	-1	-0.4	1
O=C(Cc1c(F)cccc1Cl)N1CCCC1	-3.0	2	.	11	1.1	6
Nc1nonc1-n1nnc(C(=O)N/N=C/c2c(F)cccc2Cl)c1-c1ccc2c(c1)OCO2	0.5	-7	4.9%	.	0.3	4
O=C(Cn1cc(Cl)c([N+](=O)[O-])n1)NCCC1=CCCCC1	-0.2	-1	2.0%	4	-0.3	1
Cc1cc(Cl)c(S(=O)(=O)N2CCCC2)cc1OCC(=O)NC1CCCCC1	-0.6	-1	6.0%	11	0.9	-3
CCN(CC)CC#Cc1ccc(C)cc1	-3.8	-8	4.3%	6	-0.5	5
O=c1oc2ccccc2c(Nc2ccc(O)cc2)c1[N+](=O)[O-]	-2.7	-4	3.3%	2	-0.8	-1
Cc1ccc(CS(=O)Cc2ccc(C(=O)NCc3ccc4c(c3)OCO4)o2)cc1 (stereo not given)	2.8	-3	-1.4%	3	-0.1	1
COc1ccc(/C=N/OCC(=O)OCC(=O)N(C)c2ccccc2)cc1	-2.5	-7	-2.2%	3	-0.7	-2
CCc1nnc(NC(=O)CSc2nnc(Cc3ccc(OC)cc3)o2)s1	-0.2	10	-2.6%[38.3 µM]	47	0.4	14
CC(C)C12CN3CCN(CC(C3)/C1=N\NC(=O)Nc1ccccc1)C2	0.4	-3	1.2%	17	0.5	-12
NS(=O)(=O)c1ccc(CCNC(=O)CCCn2c(SCC(=O)N3CCCC3)nc3ccsc3c2=O)cc1	-4.8	-4	-0.1%	-1	-0.4	-10
CN(c1nnc(N)s1)C1CCCCC1	3.2	0	0.0%	3	-0.3	0
COc1ccc(NC(=O)c2cccnn2)cc1	1.0	-6	-0.5%	-14	.	?
CCn1nc(C)c(/C=N/NC(=O)Cn2nccc2C)c1C	-2.7	-4	-0.2%	1	-0.2	-1
CC(=O)c1ccc(NC(=O)c2ccc(C)c(Br)c2)cc1	-0.4	-11	0.7%	-1	1.3	5
O=C(c1ccc([N+](=O)[O-])c(CS(=O)(=O)c2ccc(Cl)cc2)c1)N1CCCC1	-0.7	2	2.1%	3	0.2	13
Cc1ccc2c(c1)C1CN(C)CCC1N2C(=O)COc1ccc(N(C)C(=O)c2ccccc2)cc1 (stereo not given)	-1.6	-10	2.7%	3	-0.3	5
Cc1cc(NC(=O)CSCc2nc(-c3cccc(F)c3)oc2C)no1	0.1	-3	0.2%	-8	-0.8	7
CC(=O)c1c(C)[nH]c(C(=O)OCC(=O)NC(C)c2ccccc2)c1C (stereo not given)	-0.5	-18	0.8%	-5	0.5	7
Cc1ccc(C)c(-n2ccnc2SCC(N)=O)c1	0.1	0	-0.4%	4	-0.2	2
Cc1cc(OC(=O)c2ccccc2C(F)(F)F)c([N+](=O)[O-])c(=O)[nH]1	-5.7	-5	2.7%	25	-1.0	10
COc1ccc(Cl)cc1NC(=O)C(=O)NC1CCCCCC1	1.4	-6	6.3%	4	-0.9	-4
O=C(NNC(=O)C1CCN(Cc2ccc(F)cc2Cl)CC1)Nc1ccc([N+](=O)[O-])cc1	-0.8	1	-0.6%	.	2.2	11
O=C(c1cccs1)N1CCN(C(=O)c2cccs2)C1=S	-2.3	-1	-1.7%	-7	-0.1	1
COc1cccc(-c2cnc3c(c2)C(=O)N([C@H](C)CO)C[C@@H](C)[C@H](CN(C)C(=O)Nc2ccccc2F)O3)c1	-11	2	1.1%	4	0.0	6
COc1ccccc1C(=O)Nc1ccnn1C1CCN(C(=O)c2cnsn2)CC1	-0.9	2	1.5%	9	-0.2	2
CC(OC(=O)CCN1C(=O)C2CC=CCC2C1=O)C(=O)Nc1ccc(F)cc1 (stereo not given)	-1.7	0	1.1%	-12	1.5	7
